Bioassay records deposited in PubChem by Broad Institute.
FGF22 binding = binders of human FGF22 protein, primary screen, FGF22 synaptogenesis inhibitor project, biophysical, thermal shift, single point. Fibroblast growth factor 22 (Homo sapiens), Q9HCT0. recombinant FGF22 thermal shift, SYPRO orange fluorescence; percent of sucrose octasulfate shift, DMSO zero. calls only at 9.99 µM. 1.5% of 340,000 active;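 active = melting point raised past a set limit in the mean and every replicate; three in four hits are not shown here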
Target sequence (Q9HCT0 whole entry, looked up): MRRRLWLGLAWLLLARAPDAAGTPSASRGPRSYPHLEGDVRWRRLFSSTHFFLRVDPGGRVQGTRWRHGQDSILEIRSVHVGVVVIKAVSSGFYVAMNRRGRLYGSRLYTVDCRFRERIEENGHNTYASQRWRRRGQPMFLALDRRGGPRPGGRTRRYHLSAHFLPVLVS
AF4-AF9 inh = inhibitors of AF4 peptide binding to AF9, primary screen, biochemical, AlphaScreen, biotin-AF4 peptide, FLAG-AF9, single point; AID 651704, 2012; inhibition, % at 10 µM; 0.47% of 350,000 active;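 active = every replicate reaching a set inhibition limit, whatever the replicate mean, cut at about 25% in these data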;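 also: 0% = plate neutral control median and 100% = total signal loss; the record names both 10 and 1 µM as test concentration; the first replicate is given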
Target sequence (P42568 whole entry, looked up): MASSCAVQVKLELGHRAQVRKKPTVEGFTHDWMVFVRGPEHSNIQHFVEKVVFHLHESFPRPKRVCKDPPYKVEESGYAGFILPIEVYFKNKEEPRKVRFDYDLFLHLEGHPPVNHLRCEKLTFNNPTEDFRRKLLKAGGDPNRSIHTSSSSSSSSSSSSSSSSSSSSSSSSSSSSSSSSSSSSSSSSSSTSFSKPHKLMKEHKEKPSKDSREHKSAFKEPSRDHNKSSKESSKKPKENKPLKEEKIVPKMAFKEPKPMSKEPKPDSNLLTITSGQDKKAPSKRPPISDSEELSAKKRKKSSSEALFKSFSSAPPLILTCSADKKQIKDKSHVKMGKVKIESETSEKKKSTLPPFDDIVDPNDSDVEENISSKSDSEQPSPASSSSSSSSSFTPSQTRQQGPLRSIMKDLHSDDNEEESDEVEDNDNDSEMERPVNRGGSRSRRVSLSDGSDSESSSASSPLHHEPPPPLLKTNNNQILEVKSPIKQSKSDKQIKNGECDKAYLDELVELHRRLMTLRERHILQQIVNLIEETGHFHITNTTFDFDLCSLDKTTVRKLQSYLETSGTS
Numbers without * were called inactive; i = inactive; + = active, no number. A portion of the library; rates above refer to the full screens.

SMILES	FGF22 binding	AF4-AF9 inh
CC(C)C[C@@H]1COCc2cn(nn2)CC[C@H](Cc2ccccc2)C(=O)N1	i	0.0
C[C@H](CO)N1C[C@H](C)[C@H](CN(C)C(=O)Nc2ccccc2)Oc2ccc(NC(=O)C3CC3)cc2C1=O	i	-4.0
CN1CCN(C(=O)C[C@H]2C[C@@H]3c4cc(NC(=O)NC5CCCCC5)ccc4O[C@@H]3[C@H](CO)O2)CC1	i	1.9
CO[C@@H]1CN(C)C(=O)c2ccc(NC(=O)C3CC3)cc2OC[C@@H](C)N(Cc2cccnc2)C[C@H]1C	i	-0.6
COc1ccc(CN(C)C[C@@H]2Oc3ccc(NC(=O)Nc4ccccc4)cc3CC(=O)N([C@@H](C)CO)C[C@H]2C)cc1	i	8.0
C[C@@H]1CN([C@H](C)CO)C(=O)c2cc(NC(=O)Cc3ccccc3)ccc2O[C@@H]1CN(C)C	i	-3.4
C[C@H](CO)N1C[C@H](C)[C@H](CN(C)C(=O)Cc2ccncc2)Oc2ncc(C#Cc3ccccc3F)cc2C1=O	i	1.8
COc1ccccc1-c1ccc([C@H]2[C@H](CO)N3CCCCN(C(=O)c4cccnc4)C[C@@H]23)cc1	i	3.3
C[C@H](CO)N1C[C@H](C)[C@H](CN(C)S(=O)(=O)c2ccc(Cl)cc2)Oc2ccc(NC(=O)CCCN(C)C)cc2CC1=O	i	1.3
CO[C@@H]1CN(C)C(=O)c2ccc(NC(=O)c3cc(C)on3)cc2OC[C@H](C)N(C(C)=O)C[C@@H]1C	i	-1.6
O=C(NCc1cc(F)cc(F)c1)[C@@H]1[C@@H](CO)[C@@H]2Cn3c(cccc3=O)[C@H]1N2C(=O)Cc1ccccn1	i	-3.1
O=C1OCC2=Nc3cccc4cccc(c34)N12	i	-1.1

No new results follow: an excerpt of the list.
SMILES	FGF22 binding	AF4-AF9 inh
CC(C)C[C@@H]1COCc2cn(nn2)CC[C@H](Cc2ccccc2)C(=O)N1	i	0.0
C[C@H](CO)N1C[C@H](C)[C@H](CN(C)C(=O)Nc2ccccc2)Oc2ccc(NC(=O)C3CC3)cc2C1=O	i	-4.0
CN1CCN(C(=O)C[C@H]2C[C@@H]3c4cc(NC(=O)NC5CCCCC5)ccc4O[C@@H]3[C@H](CO)O2)CC1	i	1.9
CO[C@@H]1CN(C)C(=O)c2ccc(NC(=O)C3CC3)cc2OC[C@@H](C)N(Cc2cccnc2)C[C@H]1C	i	-0.6
COc1ccc(CN(C)C[C@@H]2Oc3ccc(NC(=O)Nc4ccccc4)cc3CC(=O)N([C@@H](C)CO)C[C@H]2C)cc1	i	8.0
C[C@@H]1CN([C@H](C)CO)C(=O)c2cc(NC(=O)Cc3ccccc3)ccc2O[C@@H]1CN(C)C	i	-3.4
C[C@H](CO)N1C[C@H](C)[C@H](CN(C)C(=O)Cc2ccncc2)Oc2ncc(C#Cc3ccccc3F)cc2C1=O	i	1.8
COc1ccccc1-c1ccc([C@H]2[C@H](CO)N3CCCCN(C(=O)c4cccnc4)C[C@@H]23)cc1	i	3.3
C[C@H](CO)N1C[C@H](C)[C@H](CN(C)S(=O)(=O)c2ccc(Cl)cc2)Oc2ccc(NC(=O)CCCN(C)C)cc2CC1=O	i	1.3
CO[C@@H]1CN(C)C(=O)c2ccc(NC(=O)c3cc(C)on3)cc2OC[C@H](C)N(C(C)=O)C[C@@H]1C	i	-1.6

Back to the main list, starting two compounds before the break.
SMILES	FGF22 binding	AF4-AF9 inh
O=C(NCc1cc(F)cc(F)c1)[C@@H]1[C@@H](CO)[C@@H]2Cn3c(cccc3=O)[C@H]1N2C(=O)Cc1ccccn1	i	-3.1
O=C1OCC2=Nc3cccc4cccc(c34)N12	i	-1.1
C[C@H]1CN([C@@H](C)CO)S(=O)(=O)c2ccc(C3=CCCCC3)cc2O[C@H]1CN(C)C(=O)Cc1ccccc1	i	6.5
C[C@@H]1CN([C@H](C)CO)C(=O)Cc2cc(N(C)C)ccc2O[C@@H]1CN(C)Cc1ccc(C(=O)Nc2ccccc2N)cc1	i	9.4
O=C(N[C@@H]1C=C[C@@H](CC(=O)N2CCc3ccccc3C2)O[C@H]1CO)C1CC1	i	-6.1
CNC(=O)C[C@H]1CC[C@H]2[C@@H](COC[C@H](O)CN2C(=O)c2ccc3c(c2)OCO3)O1	i	-4.6
C[C@@H]1CN([C@H](C)CO)C(=O)c2cc(NS(=O)(=O)c3cccs3)ccc2O[C@H]1CN(C)S(=O)(=O)c1ccc(Cl)cc1	i	-2.8
CCCC#Cc1cnc2c(c1)C(=O)N([C@H](C)CO)C[C@@H](C)[C@H](CN(C)S(C)(=O)=O)O2	i	0.5
CN1C(=O)c2cc(NC(=O)C3CC3)ccc2OC[C@H]2O[C@@H](CC(=O)Nc3cc(F)ccc3F)CC[C@@H]21	i	-2.2
CCNC(=O)[C@H]1[C@H](CO)[C@H]2Cn3c(ccc(-c4ccccc4OC)c3=O)[C@H]2N1S(C)(=O)=O	i	-0.2
C[C@@H]1CCCCO[C@H](CN(C)C(=O)c2ccccc2)[C@@H](C)CN([C@H](C)CO)C(=O)c2cc(NC(=O)Cc3ccccc3)ccc2O1	i	-3.2
COC(=O)C[C@@H]1CC[C@H]2[C@H](COc3ccc(NC(=O)Nc4ccc(C)cc4)cc3C(=O)N2C)O1	i	3.0
C[C@H](CO)N1C[C@H](C)[C@H](CN(C)S(=O)(=O)c2cccs2)Oc2c(NC(=O)Nc3ccc(F)cc3)cccc2C1=O	i	1.0
C/C=C/c1ccc([C@H]2[C@@H](CNC(=O)C3CC3)N(C(=O)CC)[C@H]2CO)cc1	i	0.1
C[C@H]1CN([C@@H](C)CO)C(=O)c2cc(NC(=O)CCC(F)(F)F)ccc2O[C@H]1CN(C)Cc1ccncc1	i	-0.6
Cc1ccc(S(=O)(=O)N(C)C[C@@H]2Oc3ccc(NC(=O)Nc4c(C)noc4C)cc3C(=O)N([C@H](C)CO)C[C@@H]2C)cc1	i	-13.8
CO[C@H]1CN(C)C(=O)c2ccc(NC(=O)c3cc(C)on3)cc2OC[C@H](C)N(C(=O)C2CC2)C[C@H]1C	i	-1.9
CO[C@H]1CN(C)C(=O)c2ccc(NC(=O)C3CCC3)cc2OC[C@@H](C)N(Cc2ccncc2)C[C@H]1C	i	1.8
COc1ccc(CN(C)C[C@H]2Oc3ccc(NC(=O)Nc4ccc5c(c4)OCO5)cc3C(=O)N([C@H](C)CO)C[C@H]2C)cc1	i	4.4
CNC[C@H]1Oc2cc(C#Cc3ccc(F)cc3)ccc2S(=O)(=O)N([C@H](C)CO)C[C@@H]1C	i	4.9
CC(C)NC(=O)Nc1cccc2c1O[C@H](CN(C)Cc1ccc3c(c1)OCO3)[C@H](C)CN([C@H](C)CO)C2=O	i	2.7
CC(C)C#Cc1cnc2c(c1)C(=O)N([C@@H](C)CO)C[C@H](C)[C@H](CN(C)C(=O)c1cnccn1)O2	+	-16.3
C[C@H](CO)N1C[C@H](C)[C@@H](CN(C)Cc2ccc(C(=O)Nc3ccccc3N)cc2)Oc2c(NS(=O)(=O)c3ccc(Cl)cc3)cccc2C1=O	i	0.5
CO[C@@H]1CN(C)C(=O)c2cc(NC(=O)NC(C)C)ccc2OC[C@@H](C)N(C(=O)CC2CC2)C[C@H]1C	i	-2.0
CN1C(=O)c2cc(NC(=O)c3ccc(F)cc3)ccc2OC[C@@H]2O[C@@H](CC(=O)O)CC[C@H]21	i	-1.5
CNC[C@H]1OCc2cn(nn2)CCCC(=O)N([C@H](C)CO)C[C@@H]1C	i	-1.5
COc1ccc2c3c([nH]c2c1)[C@@H](CO)N(CC1CC1)CC31CCN(C(=O)c2ccccc2F)CC1	i	2.5
C[C@H](CO)N1C[C@H](C)[C@H](CN(C)Cc2ccncc2)Oc2c(NS(=O)(=O)c3ccc(Cl)cc3)cccc2C1=O	i	1.3
C[C@H](CO)N1C[C@H](C)[C@H](CN(C)C(=O)C2CCCCC2)OCCCC[C@H](C)Oc2ccc(N(C)C)cc2C1=O	i	-4.2
C[C@H](CO)N1C[C@H](C)[C@H](CN(C)Cc2ccncc2)OCCCC[C@H](C)Oc2ccc(NC(=O)Nc3ccccc3)cc2C1=O	i	6.7
C[C@H]1CN([C@@H](C)CO)C(=O)c2cc(-c3ccncc3)cnc2O[C@H]1CN(C)Cc1ccc(F)cc1	i	-3.0
C[C@H]1CN([C@@H](C)CO)C(=O)CCCn2nncc2CO[C@H]1CN(C)C(=O)Nc1ccc(F)cc1	i	-1.6
COc1ccc2c3c([nH]c2c1)[C@@H](CO)N(C(=O)c1cccc(F)c1)CC31CCN(C(=O)CC2CC2)CC1	i	0.6
C[C@@H]1CCCCO[C@@H](CN(C)S(=O)(=O)c2ccc(F)cc2)[C@H](C)CN([C@@H](C)CO)C(=O)c2cc(NS(C)(=O)=O)ccc2O1	i	1.7
C[C@@H]1CN([C@H](C)CO)C(=O)Cc2cc(NC(=O)CCCCCC(=O)Nc3ccccc3N)ccc2O[C@H]1CN(C)CC1CC1	i	4.7
Cc1ccc(S(=O)(=O)Nc2ccc3c(c2)C(=O)N([C@@H](C)CO)C[C@@H](C)[C@H](CN(C)Cc2ccc4c(c2)OCO4)O3)cc1	i	3.6
O=C(NC[C@@H]1N[C@@H](CO)[C@H]1c1ccc(C2=CCCCC2)cc1)c1ccc(F)cc1	i	13.8
COc1ccc(NC(=O)N(C)C[C@@H]2Oc3ccc(NC(=O)Nc4ccc(F)cc4)cc3CC(=O)N([C@H](C)CO)C[C@H]2C)cc1	i	-0.6
CCCNC(=O)N1C[C@H](O)COC[C@H]2O[C@H](CC(=O)N3CCC(Cc4ccccc4)CC3)CC[C@@H]21	i	11.0
C[C@@H]1CN([C@@H](C)CO)C(=O)Cc2cc(N(C)C)ccc2O[C@@H]1CN(C)Cc1ccc(Oc2ccccc2)cc1	i	38.0*
Cc1ccc(S(=O)(=O)N(C)C[C@H]2Oc3ccc(NC(=O)Cc4ccccc4)cc3C(=O)N([C@H](C)CO)C[C@H]2C)cc1	i	1.5
C[C@@H]1CN([C@H](C)CO)C(=O)CCCn2nncc2CO[C@H]1CN(C)C(=O)Nc1ccccc1F	i	-1.2
COc1ccc2c3c([nH]c2c1)[C@@H](CO)N(Cc1cccc(F)c1)CC31CN(C(C)=O)C1	i	-2.5
CO[C@H]1CN(C)C(=O)c2cc(NC(=O)c3cnccn3)ccc2OC[C@@H](C)N(CC2CC2)C[C@@H]1C	i	-0.6
CNC[C@@H]1Oc2ccc(NS(=O)(=O)c3ccccc3)cc2C(=O)N([C@@H](C)CO)C[C@@H]1C	i	-1.6
C[C@@H]1CN([C@H](C)CO)C(=O)Cc2cc(NC(=O)Nc3ccc(F)cc3)ccc2O[C@@H]1CN(C)S(=O)(=O)c1ccc(Cl)cc1	i	2.4
COc1ccc(NC(=O)N(C)C[C@H]2OCc3ccccc3-c3ccccc3C(=O)N([C@H](C)CO)C[C@@H]2C)c(OC)c1	i	-2.6
C[C@@H]1CN([C@@H](C)CO)S(=O)(=O)c2ccc(-c3cccnc3)cc2O[C@H]1CN(C)C(=O)CN(C)C	i	1.0
O=C(N[C@H]1CC[C@@H](CCNS(=O)(=O)c2cccc(Cl)c2)O[C@@H]1CO)c1ccncc1	i	-0.6
C[C@@H]1CN([C@@H](C)CO)C(=O)c2cc(C#Cc3ccccc3F)cnc2O[C@H]1CN(C)S(=O)(=O)c1ccccc1F	i	-0.3
CN1CCN(C(=O)c2cc3c(c(-c4cccc(C5=CCCC5)c4)n2)[C@H](CCO)N([S@@](=O)C(C)(C)C)C3)CC1	i	-5.9
C[C@@H]1CN([C@H](C)CO)C(=O)CCCn2cc(nn2)CO[C@H]1CN(C)Cc1ccccc1	i	-0.7
O=C(Nc1ccc2c(c1)OCO2)N[C@@H]1CC[C@@H](CCNC(=O)C2CCC2)O[C@H]1CO	i	-1.1
C=CCN1C(=O)[C@]2(O[C@H](CCO)[C@@H]([Si](C)(C)c3ccc(OC)cc3)[C@@H]2C)c2cc(N3CCCCC3=O)ccc21	i	-0.7
C[C@H]1CN([C@@H](C)CO)C(=O)Cc2cc(NC(=O)C3CCCCC3)ccc2O[C@H]1CN(C)CC1CCCCC1	i	-0.8
CC(C)C#Cc1cnc2c(c1)C(=O)N([C@@H](C)CO)C[C@H](C)[C@@H](CN(C)Cc1cccc(F)c1)O2	i	5.4
CC(C)OC(=O)N(C)C[C@H]1OCc2ccccc2-c2ccccc2C(=O)N([C@@H](C)CO)C[C@@H]1C	i	-0.8
C[C@@H]1CCCCO[C@@H](CN(C)C(=O)c2ccccc2)[C@H](C)CN([C@H](C)CO)C(=O)c2cc(NC(=O)c3ccncc3)ccc2O1	i	-2.4
COc1ccccc1C#Cc1ccc([C@@H]2[C@H](C#N)N(C(=O)C3CC3)[C@H]2CO)cc1	i	0.3
C[C@@H](O)C#Cc1ccc([C@H]2[C@@H](CO)N3CCCCN(CC4CC4)C[C@H]23)cc1	i	17.6
C[C@H]1CN([C@@H](C)CO)C(=O)c2cc(NC(=O)Nc3ccccc3)ccc2O[C@H]1CN(C)Cc1ccc(Oc2ccccc2)cc1	i	0.7
CO[C@@H]1CN(C)C(=O)c2cc(NC(=O)Nc3ccccc3)ccc2OC[C@H](C)NC[C@@H]1C	i	0.0

(cont.)
SMILES	FGF22 binding	AF4-AF9 inh
COc1ccccc1-c1ccc2c(c1)O[C@H](CN(C)S(=O)(=O)c1ccc(C)cc1)[C@@H](C)CN([C@H](C)CO)S2(=O)=O	i	-4.7
COc1ccc(NC(=O)N(C)C[C@H]2Oc3c(NS(=O)(=O)c4ccc(Cl)cc4)cccc3C(=O)N([C@@H](C)CO)C[C@H]2C)cc1	i	0.8
CCCN1C[C@@H](C)[C@@H](OC)CN(C)C(=O)c2cc(NC(=O)CC(F)(F)F)ccc2OC[C@@H]1C	i	0.7
COc1cccc(-c2cnc3c(c2)C(=O)N([C@H](C)CO)C[C@H](C)[C@H](CN(C)S(=O)(=O)c2ccc(C#N)cc2)O3)c1	i	-2.2
C[C@H]1CN([C@@H](C)CO)C(=O)c2cc(-c3ccncc3)cnc2O[C@H]1CN(C)C(=O)c1ccncc1	i	-6.1
O=C(C=Cc1ccc(OCc2ccccc2)cc1)c1c(F)cccc1F	i	-0.3
